Screening data (PubChem BioAssay)
MT1-MMP act inh: blocks activation of human MT1-MMP | P50281 | HT1080 RFP-PRO-GFP cells, GFP/RFP ratio fluorescence, overnight; percent of plate control window, DMSO zero | GFP/RFP ratio change, % at 20 µM | 360,000 compounds, 0.061% hits | AID 651647;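 active = GFP/RFP ratio change of at least 30% with cell ATP level not reduced by more than half and red fluorescence within 50% of control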; also: strong numbers were not always called active
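Read-out: GFP/RFP fluorescence ratio; Test system: RFP-PRO-GFP reporter HT1080 cells; Compound dosing: single-point 20 µM compound, 1% DMSO; Times: overnight compound exposure at 37 °C.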
Rce1 inhib: blocks yeast Ras-converting enzyme | 290,000 compounds, 0.27% hits | calls only | yeast membranes, quenched prenylated peptide cleavage fluorescence | Q03530;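 active = fall in fluorescence gain of 50% or more versus controls, with final raw signal at or below 3038400; inconclusive = same 50% fall but final raw signal above 3038400; inactive = fall in fluorescence gain under 50%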;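 also: plate controls were neutral control wells for no effect and wells lacking membranes for full effect; tested at 10 µM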
Target sequence (Q03530 whole entry, looked up): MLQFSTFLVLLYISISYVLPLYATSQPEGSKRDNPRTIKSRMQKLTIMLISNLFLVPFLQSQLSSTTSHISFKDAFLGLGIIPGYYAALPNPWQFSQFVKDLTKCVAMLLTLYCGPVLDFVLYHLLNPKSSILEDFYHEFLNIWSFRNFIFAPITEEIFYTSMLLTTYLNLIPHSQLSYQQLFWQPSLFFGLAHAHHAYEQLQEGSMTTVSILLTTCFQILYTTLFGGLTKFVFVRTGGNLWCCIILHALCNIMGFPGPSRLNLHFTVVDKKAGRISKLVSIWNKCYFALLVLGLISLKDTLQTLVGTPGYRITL
UUG fidelity: yeast start codon fidelity modulation; S. cerevisiae UUG-firefly luciferase reporter, luminescence/redox ratio; activity score, % at 18.7 µM; 350,000 compounds, 0.13% hits; AID 602363;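 active = replicate mean at a twofold rise or more, about +100% in these data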;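 also: firefly luciferase made from a UUG start codon reports start codon fidelity; reporter light over untreated wells divided by growth signal over untreated wells; some hits fall short of that in this replicate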
PABP polyA inh: PABP-poly(A) binding inhibition | P11940 | PABP-poly(A) RNA binding, fluorescence polarization | inhibition, % at 35 µM | 290,000 compounds, 1% hits;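 active = 50% or more with normal probe brightness, or confirmed in later tests; inconclusive = above 50% with abnormal brightness, or retests that disagree; inactive = below 50% or failed in later tests; about a fifth of its hits are not listed in these tables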;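 also: calls also rest on retests at 20 µM and on dose response follow-up; controls were probe without protein and protein plus probe with vehicle; some compounds called inactive have numbers as strong as hits; many hits fall short of the cut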
CSC inhib: cancer stem cell inhibition. cancer stem cell-like cells viability, luminescence. inhibition, % at 7.5 µM. 300,000 compounds, 1.1% hits. AID 2717;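 active = mean at 75% or more and at least half the replicates too; inconclusive = mean and replicates disagree; tested in HMLE shEcad cells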;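 also: 0% = median of negative and 100% = median of positive control wells; the first replicate is given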
Env fusion inh: blocks HIV Env-driven cell-cell fusion | 360,000 compounds, 1.1% hits | AID 651610 | inhibition, % at 12.3 µM | HeLa-JRFL Env/CEM21 cell fusion, luciferase;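 active = mean replicate inhibition score of at least 50 and every replicate individually at or above 50; inconclusive = only one of the two criteria met; inactive = mean below 50 and not all replicates reaching 50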;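 also: 0% = plate neutral controls and 100% = maraviroc near 300 nM; one replicate is shown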
eIF4H FP inh: inhibitors of RNA binding by human eIF4H; eIF4H fluorescence polarization binding assay; inhibition, % at 35 µM; 290,000 compounds, 0.94% hits; Q15056;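 active = 50% or more with normal probe brightness, or confirmed in later tests; inconclusive = above 50% with abnormal brightness, or retests that disagree; inactive = below 50% or failed in later tests; about a fifth of its hits are not listed in these tables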;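 also: calls also rest on retests at 20 µM and on dose response follow-up; 0% = protein and probe with vehicle and 100% = probe without protein; strong numbers were not always called active; many hits fall short of the cut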
eIF4H FP inh retest: also measured in eIF4H FP inh; calls as there; inhibition, %; compound at 20 µM; confirmation average;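 mean of two retest wells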
PABP polyA inh retest: second read-out of PABP polyA inh, no call of its own (marks repeat the call); inhibition, %; compound at 20 µM; confirmation repeats;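 mean of two retest wells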
MT1-MMP act inh RFP: second read-out of MT1-MMP act inh, no call of its own (marks repeat the call); RFP signal change, %; measured here: RFP expression control read;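 0 = vehicle wells; hits needed this value within 50% of zero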
* hit, by the source's call; i = inactive; ? = inconclusive; . = no result given.

SMILES	MT1-MMP act inh	MT1-MMP act inh RFP	Rce1 inhib	UUG fidelity	PABP polyA inh	CSC inhib	Env fusion inh	eIF4H FP inh	others
C=CCn1c(SCC(C)=O)nc2scc(-c3ccco3)c2c1=O	-14	6	i	.	44*	12	10	67*	eIF4H FP inh retest=78*;PABP polyA inh retest=60*
COc1ccc(C2CC(c3cccs3)=NN2C(=O)CSc2nnc(N)s2)cc1OC (stereo unspecified)	-2	-3	i	-17	4	2	-24	14
COc1ccc(-c2nc(C#N)c(NCc3cccnc3)o2)cc1OC	5	0	i	-8	0	-18	24	-7
C#CCOCCOCCOCCNc1nc(N2CCN(C(=O)[C@H](CCC(=O)O)n3cc(C(N)CC(C)C)nn3)CC2)nc(N2CCN(C(=O)[C@H](Cc3ccc(O)cc3)n3cc(C(N)CC(C)C)nn3)CC2)n1 (stereo partly specified)	0	3	i	11	10	-5	.	2
Cc1c(NC(=O)C(C)Sc2nnc(-c3ccccc3)o2)c(=O)n(-c2ccccc2)n1C (stereo unspecified)	2	1	i	-19	-4	-11	.	4
Cc1cc(SCC(=O)OCC(=O)N2CCN(C(=O)c3ccco3)CC2)c(C)cc1Br	2	4	i	-9	1	-15	.	-10
Cc1ccc2c(c1)c1c3n2CCCN(Cc2ccccc2)C3CCC1 (stereo unspecified)	.	.	i	-16	-8	67	.	-14
CCCc1nn2c(=O)cc(CSCC(=O)Nc3ccccc3OC)nc2s1	-1	5	i	-12	-4	-6	4	-4
O=C(O)COc1ccccc1/C=N/NC(=O)CSc1nnc(-c2ccc(Cl)cc2)n1C1CCCCC1	0	4	i	-16	8	-19	7	-11
N=C1/C(=C\c2coc3ccccc3c2=O)C(=O)N=C2SC(c3ccncc3)=NN12	-51	3	i	-20	?	41	1	?
Cc1ccnc(NC(=O)C2CCN(S(=O)(=O)c3ccc4ccccc4c3)CC2)c1	-1	-4	i	.	.	2	2	.
CCc1cc(=O)oc2c(C)c(OCC(=O)NCCCN3CCOCC3)ccc12	-1	3	i	-16	3	-8	-6	3
CC1CCCC(C)N1C(=O)COC(=O)c1ccc(O)cc1 (stereo unspecified)	1	5	i	-19	4	-8	-33	-2
Cc1nc2ccc(S(=O)(=O)NCC(=O)NC(C)c3ccccc3)cc2s1 (stereo unspecified)	1	2	i	.	-1	-18	4	0
O=C(OCc1cc2ccccc2[nH]c1=O)c1cccs1	2	1	i	-31	8	1	31	-4
O=S(=O)(Nc1nc2ccccc2nc1N1CCN(c2ccccc2F)CC1)c1ccc(Cl)cc1	1	-14	.	-3	-3	?	-13	-12
O=C(NN1C(=O)C2CCCCC2C1=O)c1ccco1 (stereo unspecified)	-1	1	i	.	16	-3	-19	31
CC(=O)c1cccc(NC(=O)N2CCCC2C(=O)Nc2cccc(C)c2)c1 (stereo unspecified)	7	-6	i	6	-12	-15	.	-2
S=C(NCc1ccco1)N1CCN(c2ccc(Cl)cc2)CC1	7	1	i	.	5	16	-3	-5
O=C(CN1C(=O)c2ccccc2C1=O)OCC(=O)c1ccc(F)cc1	1	0	i	1	.	-3	2	.
CC(Sc1ncccn1)C(=O)NC1CCCC1 (stereo unspecified)	-1	2	.	-7	.	.	-9	.
O=C(COc1coc(CN2CCN(c3ccccc3F)CC2)cc1=O)N1CCc2ccccc21	1	-1	i	-17	.	-22	-16	.
Cc1ccccc1NC(=O)Cc1nc(COC(=O)c2cc(Cl)ccc2O)cs1	0	3	i	-4	-10	4	.	-4
NNC(=O)COc1ccccc1F	4	5	i	.	26	-1	6	-2
O=C(Nc1cccnc1)C12CC3CC(CC(C3)C1)C2	2	2	i	5	-2	-9	-1	6
CC(=O)O[C@H]1CSC[C@H]1NC(=O)c1ccccc1	1	0	i	-8	-1	-11	.	0
CCC12CN3CCN(CC(C3)/C1=N\NC(=O)c1ccc(F)cc1)C2	0	4	i	.	16	-2	4	6
S=C(Nc1ccc(Cl)cc1Cl)Nc1ccccc1Oc1ccccc1	1	-2	i	-22	-2	16	.	-4
O=c1c2cc(N3CCOCC3)ccc2[nH]c(=S)n1CC1CCCO1 (stereo unspecified)	7	3	i	-15	10	27	-22	3
COc1cc2c(ccc3cc(OC)c(OC)c(O)c32)cc1O	-2	-15	i	-14	86*	-5	.	74*
Cc1c(C(=O)N2CCCCC2)nnn1-c1nonc1N	3	5	i	2	4	-3	.	-6
CC(=O)Nc1nc2ccccc2n1Cc1ccccc1C	22	10	i	2	-6	.	17	-10
COC(=O)c1c(F)c(F)c(NCCO)c(F)c1F	2	2	i	-15	-3	-3	-37	3
O=C1NC(=Nc2ccc(F)cc2)SC1Cc1ccc(F)cc1 (stereo unspecified)	-1	-8	i	2	7	15	2	-8
COc1ccc(OC)c(Cc2nnc(CCC(=O)N3CCCCC3)o2)c1	0	3	i	-7	2	-11	-13	-3
CCN(CC)CC(=O)N1CCCC(C(=O)c2ccccc2OC)C1 (stereo unspecified)	-1	5	i	-3	-2	-17	-1	-5
COc1ccc2oc3cc(Cl)ccc3c(=O)c2c1	3	3	.	-27	.	.	-80	.
CCCCS(=O)(=O)c1sc2nc(C)cc(C)c2c1N	17	-2	i	-2	-3	-7	4	-11
Cc1nc(-c2ccccn2)sc1C(=O)Nc1ccc(Cl)c(Cl)c1	11	3	i	-13	-10	25	0	0
O=[N+]([O-])c1ccccc1CNC1CCCCCC1	-2	4	i	-6	-9	2	-3	9
CC1(c2nnc(-c3ccccc3)o2)CC(c2cccc(Cl)c2)=NO1 (stereo unspecified)	1	-6	i	-14	0	26	-10	-14
CCN(c1ccccc1)c1nc(C#N)nc(N(CC)c2ccccc2)n1	1	-3	i	-10	8	90*	-38	-15
CN=c1scc(C)n1/N=C/c1ccc2c(c1)OCO2	-2	0	i	.	3	-2	.	4
CCOc1cc(/C=N/N=C(N)N)ccc1OCc1ccc(Cl)cc1	-13	-16	i	-8	-6	106*	-2	3
CC1Cc2cc(/C(O)=C3/C(=O)C(=O)N(Cc4ccco4)C3c3cccs3)ccc2O1 (stereo unspecified)	0	-2	i	-31	-1	1	.	4
CCN(Cc1ccccc1)C(=O)CCS(=O)(=O)c1ccc2c(c1)NC(=O)CO2	1	5	i	-3	-3	-11	-3	75	eIF4H FP inh retest=-3;PABP polyA inh retest=14
O=P(O)(CCc1ccccn1)CN1CCOCC1	3	5	i	4	-5	-7	-33	-7
CCOC(=O)CSc1nc2ccccc2c(=O)n1CC(C)C	0	1	i	.	12	-22	5	-9
CC(C)CNc1nc(N)c([N+](=O)[O-])c(NC2CCCCC2)n1	1	-3	i	-4	-2	-15	-10	-6
O=C(NCCCN1CCOCC1)c1sc2cc([N+](=O)[O-])ccc2c1Cl	2	5	i	-14	2	0	.	-3
Cc1c(/C=N/NC(=O)c2cccs2)c2ccccc2n1Cc1ccccc1Cl	.	.	i	-25	-2	37	24	-8
CC1CC(=O)Nc2ccccc2N1S(=O)(=O)c1ccc(Br)cc1 (stereo unspecified)	3	4	i	-17	-7	.	-48	-12
Cc1cc(NC(=O)CSc2nc3ccccc3c(=O)n2-c2ccccc2)no1	3	-1	i	-14	-5	-1	.	-5
Cc1cccc(OCCC(=O)Nc2cc(S(=O)(=O)N3CCCCC3)ccc2N2CCOCC2)c1	-1	-4	i	.	4	16	21	2
COC(=O)c1ccc(Oc2coc3cc(OCc4cnn(-c5ccccc5)c4)ccc3c2=O)cc1	1	1	i	-8	3	-11	-179	-7
Cc1ccccc1Nc1c(-c2ccncc2)nc2ccc(Br)cn12	-1	-8	i	.	-6	-4	13	7
CCOC(=O)c1cc(S(=O)(=O)N2CCCC2)cn1C	0	1	i	1	6	7	1	-12
CN(CCc1ccccc1)C(=O)c1cccc(NC(=O)Cc2cccc(NC(=O)C3CCCN(S(=O)(=O)c4cccc([N+](=O)[O-])c4)C3)c2)c1 (stereo unspecified)	0	-15	.	-3	.	.	13	.
Cc1ccc(S(=O)(=O)N2CCC(C(=O)OCC(=O)N(CCC#N)c3ccc(F)cc3)CC2)cc1C	7	-6	i	-21	.	-5	.	.
CC1CN(C(=O)c2ccc(OC3CCN(Cc4ccccn4)CC3)cc2)CCN1C (stereo unspecified)	1	3	i	-20	8	24	-134	2

(cont.)
SMILES	MT1-MMP act inh	MT1-MMP act inh RFP	Rce1 inhib	UUG fidelity	PABP polyA inh	CSC inhib	Env fusion inh	eIF4H FP inh	others
CCN(CC)CCNc1c2c(c(C#N)c3nc4ccccc4n13)CCCC2	-6	0	i	-26	16	-13	-87	24
COc1ccc2[nH]c(=O)c(CN(CCc3ccccc3)C(C)=O)cc2c1	0	2	i	-14	0	1	?	-6
Cn1nnnc1Sc1ncnc2scc(-c3ccc4c(c3)OCO4)c12	0	-2	.	14	.	.	-9	.
CCCn1c2c(c(O)c(C(=O)Nc3ncccc3O)c1=O)CCCC2	-6	-2	i	-18	2	1	.	1
CC(NC(N)=O)C(=O)Nc1ccc(Cl)c(S(=O)(=O)Nc2ccc(Cl)cc2)c1 (stereo unspecified)	1	-1	i	.	-10	-5	2	-6
CCc1ccc(CN(C)C(C)C(=O)NCc2ccccc2)cc1 (stereo unspecified)	3	-4	i	3	-2	-7	10	-5
Cc1cccc(C)c1NC(=O)CN1CCN(CCCC(c2ccc(F)cc2)c2ccc(F)cc2)CC1	-4	-18	.	3	.	.	-89	.
O=C(Cc1n[nH]c(=O)[nH]c1=O)N/N=C/CCc1ccccc1	0	-1	i	-2	-11	-13	10	2
Cc1ccc2cc(CN(Cc3nnnn3C3CCCCC3)CC3CCCO3)c(=O)[nH]c2c1 (stereo unspecified)	-1	-1	i	0	-3	1	16	1
Cc1cc2nc(C)c(Cl)c(=O)n2[nH]1	0	3	i	.	11	-2	-5	5
[O-]/C(=C(\C(=S)NCc1ccccc1)[n+]1ccccc1)c1ccc(Cl)s1	-3	0	i	-25	0	8	-3	9
CN(Cc1ccccc1)Cc1nc2c(c(=O)n(C)c(=O)n2C)n1Cc1ccccc1Cl	-5	-8	i	1	-2	36	8	-4
O=C(CCN=C1NS(=O)(=O)c2ccccc21)OCC(=O)c1ccccc1	2	2	i	.	.	-9	-1	.
O=C(COC(=O)c1ccc2c(c1)S(=O)(=O)N=C1CCCCCN12)NCCc1ccc(F)cc1	2	2	i	1	11	-5	3	-6
CC1CCCCN1Cc1cnc(Cl)s1 (stereo unspecified)	6	2	i	7	2	6	.	9
CCN1C(=O)N(c2ccc(Cl)cc2)C(C)=CC1(C)C	2	0	i	.	1	-7	.	-13
Cc1ccccc1NC1=C/C(=N\S(=O)(=O)c2ccc(C(=O)O)cc2)c2ccccc2C1=O	20	-2	i	-51	6	.	5	5
CNC(=O)c1cc(C)c(-c2ccccc2)s1	3	5	i	.	3	35	1	0
Cc1ccc(S(=O)(=O)N(C)/N=C2/C(=O)N(CC(=O)O)c3ccccc32)cc1	1	0	i	.	10	-9	3	0
O=C(/C=C/c1ccccc1)NC(NC(=S)Nc1cccc(O)c1)C(Cl)(Cl)Cl (stereo unspecified)	2	-8	i	.	-2	29	-33	20
CC1=C(C(=O)Nc2ccccc2)C2(CCCCC2)C(C#N)=C(SCC(N)=O)N1	3	8	i	1	-4	-3	.	-5
